# Bioassay records from PubChem BioAssay.
# Arbovirus anti: blocks arbovirus infection; inhibition, % at 10 µM; arbovirus infection cell-based antiviral screen; actives 0.37% (n = 200,000);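 active = inhibition from about 30%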;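 note: bluetongue infection of BSR cells; cell survival read as ATP light after 72 h; 0% = infected wells without compound and 100% = uninfected wells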
# RecA splice inh: blocks M. tuberculosis RecA intein splicing | cell-free RecA intein splicing, fluorescence | inhibition, %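 (about 9 µM by stock and volumes)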 | P9WHJ3 | actives 0.75% (n = 290,000); in the data active = inhibition above about 30%; inconclusive = no clear call, values can overlap the other calls;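 note: 0% = vehicle wells and 100% = reference inhibitor control wells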
# Target sequence (P9WHJ3 whole entry, looked up, canonical isoform): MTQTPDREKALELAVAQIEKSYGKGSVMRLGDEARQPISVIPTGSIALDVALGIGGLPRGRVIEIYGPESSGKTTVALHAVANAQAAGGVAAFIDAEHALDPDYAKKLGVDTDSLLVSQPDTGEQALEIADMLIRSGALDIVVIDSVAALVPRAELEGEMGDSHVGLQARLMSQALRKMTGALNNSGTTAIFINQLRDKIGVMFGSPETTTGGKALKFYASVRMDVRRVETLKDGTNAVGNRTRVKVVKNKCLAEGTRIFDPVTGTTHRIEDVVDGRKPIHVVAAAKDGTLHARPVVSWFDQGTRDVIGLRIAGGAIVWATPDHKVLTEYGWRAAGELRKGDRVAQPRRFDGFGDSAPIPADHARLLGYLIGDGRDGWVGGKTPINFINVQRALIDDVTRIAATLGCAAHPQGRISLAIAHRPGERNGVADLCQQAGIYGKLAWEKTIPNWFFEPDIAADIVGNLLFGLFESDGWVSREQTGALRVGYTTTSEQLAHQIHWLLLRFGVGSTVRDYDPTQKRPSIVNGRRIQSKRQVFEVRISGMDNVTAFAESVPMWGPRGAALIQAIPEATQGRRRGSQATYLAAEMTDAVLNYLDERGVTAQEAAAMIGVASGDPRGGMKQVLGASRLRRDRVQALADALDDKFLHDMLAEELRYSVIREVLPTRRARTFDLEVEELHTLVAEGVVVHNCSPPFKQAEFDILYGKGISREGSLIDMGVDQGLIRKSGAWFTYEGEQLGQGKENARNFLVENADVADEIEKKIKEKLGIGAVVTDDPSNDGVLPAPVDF
# YopH PTP inh: blocks Yersinia enterocolitica YopH tyrosine phosphatase | actives 0.16% (n = 140,000) | fluorescence Ex485/Em525 | AID 898 | inhibition, %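 (about 10 µM by stock and volumes)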;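 active = inhibition of 50% or more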;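 note: controls were vehicle for no effect and minimum signal wells for full effect; inactives centre near -20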
# Mtb H37Rv: M. tuberculosis H37Rv growth inhibitors, H37Rv strain (AID 1626); actives 0.95% (n = 220,000); M. tuberculosis H37Rv growth inhibition; higher % means a stronger effect; inhibition, % at 10 µM, or IC50 in µM where a hit was titrated;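 active = confirmed in a dose series; inconclusive = inhibition above 80% but not taken into the dose series; inactive = below 80% or under 30% at every dose of the series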;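 note: bacteria incubated seven days before Alamar blue readout; 0% = bacteria only wells and 100% = bacteria with antibiotic wells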
# Mtb betalactam: beta-lactam sensitization of Mtb H37Rv | inhibition, % at 25 µM | M. tuberculosis H37Rv growth with meropenem, percent inhibition; hits of this screen are not shown here | AID 434955 | actives 0.27% (n = 330,000);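 active = about 74% or more and at least 40 points above the plate without the antibiotic, then above 30% in a dose series; inconclusive = first-round hits that could not be retested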;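 note: growth measured after seven days incubation then overnight dye step; 0% = bacteria only wells and 100% = bacteria with antibiotic; twin plates without the antibiotic show which effects depend on it; some results filed as inactive read as strong as hits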
# * = called active by the depositor; ? = inconclusive; . = not tested or not shown. The list is partial, so the mix of outcomes need not match the whole.
# Sample of the layout (three entries):
nr	Compound	Arbovirus anti	RecA splice inh	YopH PTP inh	Mtb H37Rv	Mtb betalactam
1	CCC1=NN2C(=N)/C(=C\c3cccn3-c3c(C)cccc3C)C(=O)N=C2S1	31.4*	0.2	.	3.5%	3.4
2	COc1cccc(C(=O)Nc2cc(-c3cn4cccnc4n3)ccc2C)c1	5.6	-2.5	.	-1.5%	25.8
3	C=CCNc1nc(N2CCOCC2)nc(N2CCOCC2)n1	1.3	-1.2	-7.4	0.2%	8.4

# Results, from the first entry:
nr	Compound	Arbovirus anti	RecA splice inh	YopH PTP inh	Mtb H37Rv	Mtb betalactam
1	CCC1=NN2C(=N)/C(=C\c3cccn3-c3c(C)cccc3C)C(=O)N=C2S1	31.4*	0.2	.	3.5%	3.4
2	COc1cccc(C(=O)Nc2cc(-c3cn4cccnc4n3)ccc2C)c1	5.6	-2.5	.	-1.5%	25.8
3	C=CCNc1nc(N2CCOCC2)nc(N2CCOCC2)n1	1.3	-1.2	-7.4	0.2%	8.4
4	O=S(=O)(/N=C(/Nc1cccc2ccccc12)c1ccccc1)c1cccs1	7.7	6.3	-40.6	7.2%	-7.6
5	Cc1cc(N2CCN(C)CC2)nc2ccc(NC(=S)NCCCN3CCc4ccccc4C3)cc12	-18.4	-9.3	.	-2.6%	-4.9
6	CC(CCc1ccccc1)NC(=O)C(=O)N1CCOCC1 (configuration not stated)	0.2	-0.1	.	-7.1%	-5.3
7	Cn1nc(C(=O)N2CCc3ccccc32)c2ccccc2c1=O	-2.0	3.1	.	-0.2%	3.3
8	CN(CC(O)COc1ccc(S(=O)(=O)N2CCOCC2)cc1Cl)C1CCCCC1 (configuration not stated)	.	-0.4	.	3.0%	0.5
9	COc1ccc(NC(=O)C2CCCN(C(=O)Nc3ccc(F)cc3)C2)cc1OC (configuration not stated)	.	-3.2	.	.	-2.5
10	CCNC(=O)c1ccccc1CCc1ccccc1	-1.5	9.9	.	4.6%	-5.0
11	CN(CC(O)COCc1ccccc1F)C1CCCCC1 (configuration not stated)	.	0.0	.	2.0%	-12.8
12	Cc1noc(C)c1CSc1nc2[nH]ncc2c(=O)n1-c1ccccc1	-13.7	-2.0	-5.8	-8.6%	-3.2
13	O=C(CN(Cc1ccc(Cl)cc1)C(=O)CNS(=O)(=O)c1ccccc1)NCC1CCCO1 (configuration not stated)	.	-13.3	.	.	-6.9
14	CCN(c1ccccc1)S(=O)(=O)c1ccc(C(=O)Nc2ccccn2)cc1	.	-0.5	.	.	1.6
15	COc1ccc(C(=O)NCC(=O)NCC(=O)OCC(=O)c2ccc(C)cc2)cc1	.	2.6	.	.	?
16	Cc1ccc(N2C(=O)c3cccc4cccc(c34)C2=O)cc1	-6.3	-1.3	.	-1.9%	3.1
17	O=C(CN1CCN(S(=O)(=O)c2ccccc2)CC1)Nc1ccccc1C(=O)c1ccccc1	-0.8	-0.3	-33.7	-2.9%	7.5
18	N#C/C(=C\c1ccc(Sc2ccccc2)o1)c1nc2ccccc2[nH]1	-6.6	-3.9	-34.2	2.1%	3.6
19	Cc1cccc(NC(=O)CCN2CCCCC2)c1	.	-0.8	.	.	-6.0
20	CC(Cc1ccccc1Sc1ccccc1)N(C)C (configuration not stated)	-22.4	0.1	-10.1	3.3%	-4.6
21	CC1CCCCC1NC(=O)CCC(=O)N1CCOc2ccc(Cl)cc21 (configuration not stated)	.	1.3	.	.	4.5
22	COc1ccc(C(=O)c2c3ccc(OC)cc3[n+]([O-])n2CCCC(N)=O)cc1	.	0.9	.	.	3.5
23	COc1ccccc1NC(=O)Cn1nc(-c2ccc(Cl)cc2)c2ccccc2c1=O	10.2	3.9	-19.7	15.6%	86.2
24	Cc1nc(SCCOc2ccccc2F)[nH]c(=O)c1Cc1ccccc1	0.6	-2.6	.	0.1%	0.1
25	Cc1cccc(OCC(=O)Nc2ccccc2-c2ccccc2)c1	-8.4	1.5	-21.2	9.1%	6.8
26	O=C1NN=C(c2ccccc2)CC1c1c[nH]c2ccccc12 (configuration not stated)	14.8	2.0	.	2.5%	-0.6
27	O=C(COC(=O)CCCSc1nc2ccccc2[nH]1)Nc1cccc(F)c1	3.8	-0.5	-46.8	4.6%	-3.6
28	O=C(Nc1ccc(S(=O)(=O)Nc2ccnn2-c2ccccc2)cc1)C(F)(F)F	.	0.8	.	.	62.0
29	Cc1cc(C)cc(NC(=S)N2CCC(NC(=O)C3CC3)CC2)c1	.	-3.7	.	.	1.0
30	Cc1ccccc1NNC(=O)C(=O)NNc1ccccc1C	.	-1.4	.	2.7%	57.0

# Full records, looked up by structure.
# Cc1cccc(OCC(=O)Nc2ccccc2-c2ccccc2)c1 is listed as Arbovirus anti = -8.4; RecA splice inh = 1.5; YopH PTP inh = -21.2; Mtb H37Rv = 9.1%; Mtb betalactam = 6.8
# N#C/C(=C\c1ccc(Sc2ccccc2)o1)c1nc2ccccc2[nH]1 is listed as Arbovirus anti = -6.6; RecA splice inh = -3.9; YopH PTP inh = -34.2; Mtb H37Rv = 2.1%; Mtb betalactam = 3.6
# O=C(CN1CCN(S(=O)(=O)c2ccccc2)CC1)Nc1ccccc1C(=O)c1ccccc1 is listed as Arbovirus anti = -0.8; RecA splice inh = -0.3; YopH PTP inh = -33.7; Mtb H37Rv = -2.9%; Mtb betalactam = 7.5

# Later entries.
nr	Compound	Arbovirus anti	RecA splice inh	YopH PTP inh	Mtb H37Rv	Mtb betalactam
31	c1ccc2sc(NN=C3CCCCCC3)nc2c1	5.2	.	.	?	6.2
32	CCc1cc2ccc(C)cc2nc1SCC(=O)NNC(=O)c1ccco1	-7.8	2.9	-16.0	4.3%	3.8
33	CC(C)Sc1nc2c([nH]1)c(=N)ncn2Cc1ccccc1	11.4	0.5	.	1.8%	3.6
34	Cc1onc(C(=O)NN)c1-c1csc(COc2ccc(Cl)cc2)n1	.	-1.0	.	-10.6%	-6.4
35	CCc1nnc(NC(=O)CSc2ncnc3scc(-c4ccc(C)cc4)c23)s1	-9.9	-5.4	-23.2	-8.6%	2.6
36	COc1ccc(-c2nc(CN(CC3CCC(=O)N3)C(C)C)c(C)o2)c(C)c1C (configuration not stated)	-2.6	2.3	.	0.7%	-1.4
37	COc1cc(/C=C/C(C)=O)cc(OC)c1OC	16.3	-0.5	-2.7	4.5%	22.5
38	CCCc1nc2scc(-c3ccccc3)c2c(=O)n1N	12.6	-0.5	29.5	4.8%	?
39	OC(CCCN1CCC(O)(c2ccc(Cl)cc2)CC1)c1ccc(F)cc1 (configuration not stated)	-23.1	-0.5	-26.0	-1.0%	-5.3
40	O=C(Nc1ccc([N+](=O)[O-])cc1)C1(c2ccccc2)CCOCC1	-2.2	-6.9	-23.4	-4.5%	9.4
41	CCS(=O)(=O)N1CCN(CC2CC3C=CC2C3)CC1 (configuration not stated)	2.4	-2.3	-10.5	-6.2%	-4.8
42	Cc1ccc(SCC2(O)CCN(C(=O)c3ccc(Cl)cc3)CC2)cc1	13.1	11.6	-30.0	3.8%	7.9
43	CC(/C=N/NC(=O)Cc1cc(=O)[nH][nH]1)=C\c1ccccc1	3.0	88.8*	-15.4	-5.8%	-7.2
44	Cc1cccc(-c2c3c(=O)n(C)c(=O)n(C)c3c3cccnn23)c1	-3.2	-1.5	-21.8	-2.2%	-8.4
45	S=C(NCC1CCCO1)N1CCN(c2cccc(Cl)c2)CC1 (configuration not stated)	-2.0	12.7	.	3.3%	-10.1
46	COc1ccc(-n2nc([N+](=O)[O-])c(=NCc3ccc4c(c3)OCO4)n2O)cc1	-10.3	-1.2	-2.6	3.7%	1.1
47	CC(=O)c1c(C)[nH]c(C(=O)OCc2nc3ccsc3c(=O)[nH]2)c1C	.	1.1	.	.	-9.0
48	Cc1cccc(Nc2nc(-c3ccncc3)cs2)c1	-17.0	3.1	.	71.6%	81.1
49	CCOc1ccc(C2C(C(=O)c3cccs3)=C(O)C(=O)N2Cc2cccnc2)cc1OC (configuration not stated)	2.6	-2.2	.	5.6%	-7.9
50	Cn1c(=O)n(CC(=O)N2CCC3(CC2)OCCO3)c(=O)c2ccccc21	2.8	-1.1	-30.7	-7.7%	-8.3
51	COc1cc(-c2noc(CCCC(=O)NCc3ccccc3)n2)cc(OC)c1OC	-13.6	4.4	-20.6	-3.0%	-11.7
52	O=c1[nH]c(=O)n(CCOc2ccc(Cl)cc2)cc1Br	15.7	-10.9	-32.9	-4.0%	-2.2
53	O=C1/C(=C/Nc2cccc([N+](=O)[O-])c2)CCc2ccccc21	-7.2	59.6*	-21.9	0.2%	-12.3
54	O=C1NC(=O)N(Cc2ccccc2)C(=O)/C1=C/C=C/c1ccco1	.	0.2	.	-1.9%	87.0
55	Cc1cc(C)cc(NC(=O)CN2CCc3cc4c(cc3C2C)OCCCO4)c1 (configuration not stated)	.	8.2	.	.	6.2
56	Fc1ccc(NC(=S)Nc2cccc3ccccc23)cc1	.	-3.0	.	.	3.4
57	COc1ccc(S(=O)(=O)N2c3ccc(F)cc3CCC2C)cc1 (configuration not stated)	.	9.8	.	.	0.6
58	CCOC(=O)CS(=O)(=O)c1nc(-c2ccccc2)cc(C(F)(F)F)n1	10.7	71.6*	-3.0	7.8%	92.7
59	CC(=O)N1CCCN(C(=O)c2ccc3nc(Cc4ccccc4F)oc3c2)CC1	.	-2.6	.	.	-5.5
60	COc1cccc(NC(=S)N(CCN(C)C)C(C)c2cccnc2)c1 (configuration not stated)	0.9	0.4	.	8.9%	-1.9
61	CSc1nsc(SCC(=O)Nc2ccc(C(N)=O)cc2)n1	.	2.5	.	.	-3.7
62	CCOc1ccc2c(c1)C(N(CCN1CCOCC1)C(=S)Nc1ccccc1OC)CC(C)(C)O2 (configuration not stated)	8.1	3.2	.	1.9%	1.2
63	Cc1cc(C)nc(NC(=O)CSc2nn(-c3ccccc3)c(=S)s2)n1	.	.	.	-2.7%	-3.1
64	O=C(COC(=O)c1ccc(Br)cc1)NCc1ccccc1	-1.7	4.8	-33.3	2.9%	3.8
65	COc1ccc(NC(=O)COc2coc(CN3CCCc4ccccc43)cc2=O)cc1	.	-1.4	.	.	2.4
66	Cc1cc(C)n2nc(SCC(=O)Nc3ccccc3)nc2n1	-0.6	3.8	.	-4.3%	47.1
67	O=c1cc(-c2ccccc2)nc2nc[nH]n12	12.1	1.6	-21.2	-7.8%	-5.9
68	CCc1nnc(NC(=O)c2cc(OC)c(OC)cc2[N+](=O)[O-])s1	1.9	0.1	.	-4.8%	3.1

# 2 entries picked at random from the list so far:
nr	Compound	Arbovirus anti	RecA splice inh	YopH PTP inh	Mtb H37Rv	Mtb betalactam
64	O=C(COC(=O)c1ccc(Br)cc1)NCc1ccccc1	-1.7	4.8	-33.3	2.9%	3.8
61	CSc1nsc(SCC(=O)Nc2ccc(C(N)=O)cc2)n1	.	2.5	.	.	-3.7
